Compound activity as filed in PubChem BioAssay.
OX1R antag: OX1R (human) antagonism; OX1R-expressing cells, FRET antagonist read-out; 1.8% of 330,000 active; inhibition, % at 6.6 µM; AID 485270; in the data active = inhibition mostly above about 38%, no sharp cut-off; inactive = mostly below about 40%;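 note: 0% = agonist challenge alone and 100% = reference antagonist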
Target sequence (O43613 whole entry, looked up): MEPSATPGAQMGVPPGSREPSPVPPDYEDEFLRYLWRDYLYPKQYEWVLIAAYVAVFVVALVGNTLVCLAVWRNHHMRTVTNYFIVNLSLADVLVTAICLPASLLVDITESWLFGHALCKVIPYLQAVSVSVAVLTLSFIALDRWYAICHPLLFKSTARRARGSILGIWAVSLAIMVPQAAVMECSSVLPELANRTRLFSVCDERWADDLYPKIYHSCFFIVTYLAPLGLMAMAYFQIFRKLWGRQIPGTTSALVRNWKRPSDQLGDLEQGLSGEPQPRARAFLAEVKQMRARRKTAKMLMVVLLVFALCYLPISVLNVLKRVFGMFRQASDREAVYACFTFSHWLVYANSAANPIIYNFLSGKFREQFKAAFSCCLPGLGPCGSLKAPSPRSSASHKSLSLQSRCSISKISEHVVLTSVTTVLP
* marks the source's active call; other numbers are inactive results.

OX1R antag	structure
11	COc1ccc(N2CCN(C(c3ccc4ncccc4c3)c3nnnn3C(C)(C)C)CC2)cc1 (configuration not stated)
14	O=C(c1cccc(Cl)c1)N1CCCC(C(=O)N2CCCCCC2)C1 (configuration not stated)
4	CS(=O)(=O)N1CCCC(C(=O)Nc2c(F)cccc2F)C1 (configuration not stated)
8	C/C(=N\Nc1ncc(Cl)cc1Cl)c1ccc(N2CCOCC2)cc1
32	O=C(O)C1CCCCC1C(=O)N1CC=C(c2ccccc2)CC1 (configuration not stated)
25	COc1ccc(NC(=O)c2c(C(F)(F)F)nn(C)c2SCc2ccccc2)cc1
10	COC(=O)C[C@H]1c2cc(F)ccc2S(=O)(=O)N1c1ccccc1
16	COc1ccc(/C=C(/C(=O)NCc2ccccc2)c2ccccc2)cc1
13	COC(=O)CCC(NC(=O)OCc1ccccc1)C(=O)NC(CC(C)C)C(=O)OC (configuration not stated)
23	O=C(c1ccc2c3c(cccc13)CC2)C1CCCN(C(=O)c2cccnc2)C1 (configuration not stated)
11	OCCC1CN(Cc2cccc3c2OCO3)CCN1C1CCCCC1 (configuration not stated)
9	O=C(CCS(=O)(=O)c1ccccc1)Nc1ccccn1
25	CN1CCN(c2cnn(-c3ccccc3)c(=O)c2Br)CC1
3	COc1cc(CNCc2ccco2)cc(OC)c1O
17	Cc1ccc(C(=O)NN(C)c2nc3ccccc3nc2C(F)(F)F)cc1
31	CCCCCC1CCC(c2ccc(C(N)=O)cc2)CC1 (configuration not stated)
4	O=C1CC(c2ccccc2)CC(O)=C1C=NC1CCCCC1 (configuration not stated)
5	NS(=O)(=O)c1ccc(CNS(=O)(=O)c2cc(Cl)ccc2Cl)cc1
-3	O=C1CC(C(F)(F)C(F)(F)C(F)(F)C(F)F)=Nc2ccccc2N1
8	O=C(NNS(=O)(=O)c1ccccc1)C(O)(c1ccccc1)c1ccccc1
8	CCN1CCN(C(=O)CN2C(=O)COc3ccc(C)cc32)CC1
20	CCN(CC)S(=O)(=O)c1ccc(C(=O)Nc2cc(C)on2)cc1
20	COc1ccc2oc(C(=O)OCC(=O)N3CCN(C(C)=O)CC3)c(C)c2c1
28	COc1ccc(C(=O)NCCSCc2ccc(Cl)cc2)cc1OC
21	COc1ccccc1C(=O)NC(=O)COC(=O)c1ccc(Cl)cc1[N+](=O)[O-]

Brought forward from above: two entries, followed by the next part.
OX1R antag	structure
28	COc1ccc(C(=O)NCCSCc2ccc(Cl)cc2)cc1OC
21	COc1ccccc1C(=O)NC(=O)COC(=O)c1ccc(Cl)cc1[N+](=O)[O-]
14	Cc1c(Cl)cccc1NC(=O)NCc1ccc(F)cc1
7	O=c1c2c(nc3cc(-c4ccccc4)[nH]n13)CCS2
4	O=C(Cc1cccs1)NNC(=S)NCc1ccco1
4	Cc1ccc(C(=O)/C=C/Nc2ccccc2C(N)=O)o1
4	O=c1c(-c2ccc(O)cc2O)coc2cc(O)cc(O)c12
6	O=C(COc1ccc(Cl)cc1Cl)N/N=C/c1cccnc1
7	O=S(=O)(c1ccc(Cl)cc1)c1ccccn1
6	COc1ccc(CC(=O)Nc2ccc(S(=O)(=O)Nc3nccs3)cc2)cc1
13	CCOC(=O)c1c(-c2ccc(C)o2)csc1NC(=O)CN1CCC(C(N)=O)CC1
24	COc1cccc(C(=O)/C=C/Nc2ccc(S(=O)(=O)Nc3cnc4ccccc4n3)cc2)c1
21	Cc1oc(-c2ccccc2F)nc1CS(=O)(=O)CC(=O)N1CCCCCC1
4	O=C(c1cc(C2CC2)on1)N1CCN(c2ccccc2)CC1
0	O=C(CCC1CCCC1)Nc1nnc(-c2ccc3c(c2)OCO3)s1
16	CCCN(CC(=O)Nc1ccccc1C)C(=O)c1ccc(C2SCCS2)cc1
4	COc1ccc(NC(=O)NC(C)c2ccc3c(c2)OCO3)cc1OC (configuration not stated)
19	NC(=NC(=O)c1ccccc1)N1N=CCC1c1ccccc1 (configuration not stated)
7	COc1cc(NS(=O)(=O)c2ccc(NC(=S)NC(=O)C(C)(C)C)cc2)nc(OC)n1
12	Cc1cc(NC(=O)c2ccccc2F)n(-c2nc3ccccc3[nH]2)n1
0	CCOc1cc(C(=O)N/N=C\c2cn(CC)nc2C)cc(OCC)c1OCC
-1	CC(Oc1ccccc1)C(=O)Nc1ccc(S(=O)(=O)N2CCCC2)cc1 (configuration not stated)
9	COC(=O)c1ccc(/C=N/N2CCN(Cc3ccccc3)CC2)cc1
14	CCOC(=O)CCc1c(C)c2ccc(OC3CCCCC3=O)c(C)c2oc1=O (configuration not stated)
11	Cn1c(CSCC(=O)Nc2ccccc2)nnc1SCc1ccccc1
1	CCN1CCN(CC(=O)N2c3ccccc3Sc3ccccc32)CC1
5	O=C(NC(=S)Nc1ccc(Cl)cn1)c1cccs1
-10	O=C1c2ccccc2NC(c2ccc(O)cc2)N1c1ccccc1 (configuration not stated)
0	O=C(CCNS(=O)(=O)c1ccc(Br)cc1)NCc1ccc(Cl)cc1
35	Cc1ccc(/C=N/NC(=O)CCn2nc(C)cc2C)c(C)c1
12	CCC1CCc2c([nH]c3ccccc3c2=O)O1 (configuration not stated)
-2	COc1cccc(CN2CC(C(=O)N(C)Cc3ccc(C)cc3)CCC2=O)c1 (configuration not stated)
48	COC(=O)c1sccc1NC(=O)Nc1cccc(F)c1
11	CCN(CC)P1(=O)OC(c2cc(OC)c(OC)c(OC)c2)=Nc2c1c(C)nn2-c1ccccc1 (configuration not stated)
18	CCC(C)NCCOCCOc1ccc(Br)cc1C (configuration not stated)
37	CC(C)CC(=O)Nc1ccc([N+](=O)[O-])cc1Cl
-11	Cn1cnc2c1c(=O)[nH]c(=O)n2Cc1ccccc1
7	CCCCCCn1c(-c2ccco2)nc2oc3cc(OC)ccc3c(=O)c2c1=O
15	NC(=O)Cn1cc(/C=N\NS(=O)(=O)c2ccc(Cl)cc2)c2ccccc21
14	COc1ccc(C/C(C)=N/Nc2nc(C)cc(=O)[nH]2)cc1
23	Cc1ccc2nc(SCC(=O)Nc3ccc4c(c3)CCC4)[nH]c2c1
34	C[C@@H]1NC(=O)[C@H](CCC(=O)O)NC(=O)c2cc([N+](=O)[O-])cc(F)c2NCCC[C@@H](C(N)=O)NC1=O
33	COc1ccccc1CC(=O)Nc1ccc([N+](=O)[O-])cc1OC
18	O=C(NCC(c1cccnc1)N1CCN(c2ccc(F)cc2)CC1)c1ccc(F)cc1 (configuration not stated)
11	O=C(CSc1nc2ccccc2n1-c1ccccc1)Nc1ncc(Cl)cc1Cl
11	COc1ccc(OCCCC(=O)Nc2cc(Cl)ccc2-n2cncn2)cc1
14	CCCN(CCC)CC(O)COc1ccc2c(c1)OCO2 (configuration not stated)
3	Cc1cc(N2C(=O)C(O)=C(C(=O)c3cccs3)C2c2ccc(F)cc2)no1 (configuration not stated)
7	Cn1cccc/c1=N\c1cccc[n+]1C
18	O=C(N/N=C/c1ccoc1)c1ccccc1O
11	CC(=O)Nc1ccc2c(c1)C(=O)N(c1cccc(C)c1)C2=O
9	Cc1ccc(/C=N/NC(=O)c2nnn(-c3nonc3N)c2CN(C)C2CCCCC2)cc1

Carrying on:
OX1R antag	structure
11	NC(CC(=O)OC1CCCCC1)C(=O)OC1CCCCC1 (configuration not stated)
15	COc1c(C)cc(C(=O)C2CCCN(C(=O)c3cc(C)n(C)n3)C2)cc1C (configuration not stated)
26	c1ccc(OCCCn2nnc(-c3ccc(N4CCOCC4)cc3)n2)cc1
4	COc1ccccc1CC(=O)Nc1cccc(F)c1
8	Cc1cccc(C)c1NC(=O)NC1(C(=O)NCCCN2CCOCC2)CCCCC1
5	CCc1cc(C(=O)N(C)CC(=O)N(CC(C)C)c2c(N)n(CC(C)C)c(=O)[nH]c2=O)sc1C
8	COc1cc(Nc2nc3ccccc3n3nnnc23)cc(OC)c1OC
7	COC(=O)c1ccccc1NC(=O)Nc1ccc(Cl)cn1
19	O=C(c1cc2ccccc2oc1=O)N(Cc1ccccc1)C1CCS(=O)(=O)C1 (configuration not stated)
11	Cc1c(Nc2nc3ccccc3nc2NS(=O)(=O)c2ccccc2)c(=O)n(-c2ccccc2)n1C
16	CCN(CC)CCNC(=O)C(=O)Nc1cc2c3c(c1)CC(=O)N3CCC2
12	Cc1ccc2nc(N3CCOCC3)c(C=O)cc2c1
-1	Cn1c(=O)cc(SCC(=O)NCCCN2CCN(c3ccccc3F)CC2)c2ccccc21
9	Cc1ccc(-c2nc(C(F)(F)F)cc(=O)[nH]2)cc1
5	CCCOC(=O)CCNc1n[nH]c(=O)[nH]c1=O
26	Cc1ccc(CN2CC(C(=O)N3CCN(S(=O)(=O)c4cccc(F)c4)CC3)CC2=O)cc1 (configuration not stated)
28	O=S(=O)(c1ccccc1)c1nc(NC2CC2)sc1Cl
19	CC(CCCCC(=O)Nc1ccc(C(F)(F)F)cc1)NCCc1cnc[nH]1 (configuration not stated)
11	Cc1ccc2c(c1)N(CC(=O)NC1CCCC1)C(=O)C(C)O2 (configuration not stated)
5	O=C(NC1CCN(Cc2ccccc2)CC1)c1ccc2c(c1)OCCCO2
28	CCn1cc(CNc2nc3nonc3nc2N2CCCCC2)cn1
-1	CC(C)(C)C1CCc2c(sc3c2C(=O)NC(c2ccco2)N3)C1 (configuration not stated)
-6	COc1cc(CNCc2ccc(OC)cc2OC)cc(OC)c1
23	Cc1cc(-c2cccc(Br)c2)c(C#N)c(N)n1
22	CS(=O)(=O)Nc1cccc(C2=NN(S(=O)(=O)c3ccccc3)C(c3cccs3)C2)c1 (configuration not stated)
10	CCCCNC(=O)c1ccc(CS(=O)(=O)c2ccc(OC)cc2)o1
10	O=C(O)CCC(=O)Nc1ccc(OCC(=O)O)cc1
1	O=C1c2ccccc2NC2CCCCC12 (configuration not stated)
8	CCc1cc(=O)oc2c(C)c(OC(C)C(=O)NCC3CCC(C(=O)O)CC3)ccc12 (configuration not stated)
5	Cc1cc(NS(=O)(=O)c2ccc(Nc3nc(-c4ccc(O)cc4)cs3)cc2)no1
-3	Cc1ccc(NC(=S)N(C)C(c2ccccc2)c2ccccc2)cc1C
28	Cc1nnc(SCc2cccc([N+](=O)[O-])c2)s1
14	Cc1ccccc1OCCC(=O)OCC(=O)Nc1ccc(C(N)=O)cc1
26	O=C(O)C1=C(OCc2ccccc2)C(=O)NCC1
4	Cc1nn(-c2ccccc2)c(C)c1/C=N/NC(=O)c1cc(C2CC2)[nH]n1
9	COc1ccc(C(C#N)N2CCCCC2)cc1OC (configuration not stated)
24	CCCC(=O)N/C(N)=N/c1nc(C)c2cc(C)ccc2n1
3	CN(C)CCCNCCCNC(=O)c1ccncc1
27	COc1ccccc1N1CCN(C2CCCN(C(=O)c3ccoc3C)C2)CC1 (configuration not stated)
11	COCCCN(C(=O)CCOc1ccc(C(C)(C)C)cc1)c1c(N)n(Cc2ccccc2)c(=O)[nH]c1=O
1	CCN(CCn1cccn1)C(=O)CC1C(=O)NCCN1Cc1ccc(OC)c(OC)c1 (configuration not stated)
-7	COc1nc(N)nc(NC23CC4CC(CC(C4)C2)C3)n1
7	O=C(NCc1ccc(F)cc1)c1ccc(Cl)c(NC2=NC3CS(=O)(=O)CC3S2)c1 (configuration not stated)
12	CCCCCCCC(=O)NNC(=O)CCC(=O)O
7	CC(NC(=O)c1ccccc1F)c1nnc(SCC(=O)Nc2nccs2)n1C (configuration not stated)
14	CN(C)CCCNC(=O)c1cc(C(=O)c2ccc(F)cc2)c[nH]1
9	CCC(=O)N1CCN=C1SCc1ccccc1
10	O=C(O)COCCN1CCN([C@H](c2ccccc2)c2ccc(Cl)cc2)CC1
13	CC1(Cc2ccc3c(c2)OCO3)NC(=O)NC1=O (configuration not stated)
10	O=C(O)c1cccc(S(=O)(=O)Nc2ccc(OCc3ccccc3)cc2)c1

Another view of 22 compounds above.
Structure | OX1R antag
CCc1cc(=O)oc2c(C)c(OC(C)C(=O)NCC3CCC(C(=O)O)CC3)ccc12 (configuration not stated) | 8
Cc1cc(NS(=O)(=O)c2ccc(Nc3nc(-c4ccc(O)cc4)cs3)cc2)no1 | 5
Cc1ccc(NC(=S)N(C)C(c2ccccc2)c2ccccc2)cc1C | -3
Cc1nnc(SCc2cccc([N+](=O)[O-])c2)s1 | 28
Cc1ccccc1OCCC(=O)OCC(=O)Nc1ccc(C(N)=O)cc1 | 14
O=C(O)C1=C(OCc2ccccc2)C(=O)NCC1 | 26
Cc1nn(-c2ccccc2)c(C)c1/C=N/NC(=O)c1cc(C2CC2)[nH]n1 | 4
COc1ccc(C(C#N)N2CCCCC2)cc1OC (configuration not stated) | 9
CCCC(=O)N/C(N)=N/c1nc(C)c2cc(C)ccc2n1 | 24
CN(C)CCCNCCCNC(=O)c1ccncc1 | 3
COc1ccccc1N1CCN(C2CCCN(C(=O)c3ccoc3C)C2)CC1 (configuration not stated) | 27
COCCCN(C(=O)CCOc1ccc(C(C)(C)C)cc1)c1c(N)n(Cc2ccccc2)c(=O)[nH]c1=O | 11
CCN(CCn1cccn1)C(=O)CC1C(=O)NCCN1Cc1ccc(OC)c(OC)c1 (configuration not stated) | 1
COc1nc(N)nc(NC23CC4CC(CC(C4)C2)C3)n1 | -7
O=C(NCc1ccc(F)cc1)c1ccc(Cl)c(NC2=NC3CS(=O)(=O)CC3S2)c1 (configuration not stated) | 7
CCCCCCCC(=O)NNC(=O)CCC(=O)O | 12
CC(NC(=O)c1ccccc1F)c1nnc(SCC(=O)Nc2nccs2)n1C (configuration not stated) | 7
CN(C)CCCNC(=O)c1cc(C(=O)c2ccc(F)cc2)c[nH]1 | 14
CCC(=O)N1CCN=C1SCc1ccccc1 | 9
O=C(O)COCCN1CCN([C@H](c2ccccc2)c2ccc(Cl)cc2)CC1 | 10
CC1(Cc2ccc3c(c2)OCO3)NC(=O)NC1=O (configuration not stated) | 13
O=C(O)c1cccc(S(=O)(=O)Nc2ccc(OCc3ccccc3)cc2)c1 | 10

The list continues:
OX1R antag	structure
15	O=C1/C(=C/c2cccnc2)CCc2c1[nH]c1ccccc21
20	C=C(C)CN(CC)c1nc(N)c2c(N)nc3c(c2c1C#N)CC(=O)N3C12CC3CC(CC(C3)C1)C2
21	CC(C)Oc1ccccc1-c1nc(SCC(=O)O)n[nH]1
5	CCOC(=O)C1(Cc2cccc(F)c2)CCN(C(=O)Cc2cccnc2)CC1
4	CCc1nn(CC(=O)NCc2cccnc2)c(=O)c2cc3occc3n12

Not all compounds are listed, and most or all hits are left out here.
